Beta apoptosis: blocks beta cell apoptosis; INS-1E cytokine-induced death, ATP luminescence, 48 h; percent of positive-control rescue, neutral wells zero; AID 435005; protection from apoptosis, % (test concentration not listed); hit rate 0.8% among 300,000;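 active = all replicates at 75% or more, or half of them and the mean; inconclusive = half reach 75% but not the mean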;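 note: 0% = cytokine-treated negative control wells and 100% = positive control rescue; higher means more ATP so stronger rescue from cytokine killing; wells of about 40 µL received 100 nL stock; the first replicate is given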
Bfl-1 A1 inh: inhibitors of the anti-apoptotic protein A1, read as caspase activation; MEF A1-2A-BIM cells, Caspase-Glo 3/7 luminescence, 3 h; percent of clofoctol response, vehicle zero; hit rate 0.066% among 330,000; AID 2462; caspase activation, % (no concentration beside the values);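 active = over half of replicate activation scores above 10%, or exactly half above 10 with the replicate mean above 10; inconclusive = replicate mean below 10 yet half the replicates above 10; inactive = over half of replicates below 10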;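 note: wells of about 30 µL received 50 nL stock; many hits fall short of the cut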
MLL AF4-AF9 inh: inhibitors of human MLL-AF4/AF9 interaction. AlphaScreen, biotin-AF4 peptide binding to FLAG-AF9. inhibition, % at 10 µM. hit rate 0.47% among 350,000. AID 651704;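 active = every replicate reaching a set inhibition limit, whatever the replicate mean, cut at about 25% in these data; inconclusive = mean inhibition reaches that limit but some replicates miss it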;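 note: 0% = plate neutral control median and 100% = total signal loss; the record names both 10 and 1 µM as test concentration; the first replicate is given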
Target sequence (P42568 whole entry, looked up): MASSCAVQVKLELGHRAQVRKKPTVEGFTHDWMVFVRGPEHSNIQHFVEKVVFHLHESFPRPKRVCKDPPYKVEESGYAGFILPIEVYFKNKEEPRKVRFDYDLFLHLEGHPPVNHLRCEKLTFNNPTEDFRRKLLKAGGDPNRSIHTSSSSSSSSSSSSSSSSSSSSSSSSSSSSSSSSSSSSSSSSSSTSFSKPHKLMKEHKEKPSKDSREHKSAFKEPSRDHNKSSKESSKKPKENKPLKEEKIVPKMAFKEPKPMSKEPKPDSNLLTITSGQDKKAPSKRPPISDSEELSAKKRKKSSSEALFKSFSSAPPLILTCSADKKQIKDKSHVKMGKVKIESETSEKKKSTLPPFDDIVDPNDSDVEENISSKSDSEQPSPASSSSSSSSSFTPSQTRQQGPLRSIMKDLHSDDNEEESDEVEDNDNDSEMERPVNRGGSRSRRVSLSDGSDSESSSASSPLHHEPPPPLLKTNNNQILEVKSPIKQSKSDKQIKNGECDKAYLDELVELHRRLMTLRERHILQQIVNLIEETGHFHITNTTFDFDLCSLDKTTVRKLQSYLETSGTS
Vif A3G: inhibitors of Vif binding to APOBEC3G peptide, primary screen, biochemical, TR-FRET, GST-Vif 1-94, biotin-A3G peptide, dose response retest (AID 1117319); TR-FRET GST-Vif / biotin-A3G peptide binding; higher % means a stronger effect; test concentration not given here; strong numbers were not always called active; one-dose inhibition, %; IC50 in µM for titrated hits; hit rate 0.57% among 260,000;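 active = above the screen mean plus three standard deviations and confirmed in dose response; inconclusive = results disagree or hit not tested in dose response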;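 note: Vif residues 1-94 fused to GST binding biotinylated APOBEC3G peptide 110-148; 0% = full assay without inhibitor and 100% = GST in place of GST-Vif; retest series ran down from 100 µM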
LANA-H2A inh: blocks KSHV LANA binding to histone H2A/H2B | Q9QR71 | hit rate 0.6% among 320,000 | inhibition, % (no concentration beside the values) | cell-free LANA-H2A/H2B peptide, fluorescence polarization; in the data active = inhibition mostly above about 10%, no sharp cut-off; inactive = mostly below about 6.7%;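 note: stock transfer was 7.5 nL into about 10 µL; 0% = median of vehicle wells and 100% = median of positive control wells; one replicate is shown; the record names a cut of 25% in any replicate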
Calb FLC: affects C. albicans growth with fluconazole; C. albicans CaCi-2 (fluconazole-resistant clinical isolate) + fluconazole, Alamar Blue growth, 48 h; growth inhibition, % (concentration not given with the values); hit rate 0.57% among 300,000; AID 1979;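 active = most replicates above 75%; inconclusive = exactly half above 75%; inactive = most below 75%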;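 note: all wells also contain fluconazole at 8 µg/ml as a sub-toxic cotreatment; 0% = median of DMSO wells and 100% = median of geldanamycin control wells; wells of about 8 µL received 7.5 nL stock; the first replicate is given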
T cruzi inh: blocks replication of Trypanosoma cruzi; T. cruzi beta-gal in NIH3T3, luminescence, 90 h; inhibition, % (no concentration beside the values); hit rate 1.4% among 300,000;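 active = mean inhibition across valid replicates above about 55%, limit read from the data; inconclusive = mean below that limit but half or more replicates reach it; inactive = mean below it, under half of replicates reach it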;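 note: signal also drops with host cell toxicity which is not excluded here; 0% = plate median of DMSO wells and 100% = zero luminescence signal; higher percent means less beta-gal luminescence so fewer parasites; stock transfer was 50 nL into about 50 µL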
RanGTP-Impb inh: inhibitors of RanGTP-importin-beta interaction, primary screen, biochemical, FRET, CFP-Ran, YFP-importin-beta, homogeneous | cell-free CFP-Ran/YFP-importin-beta FRET ratio | inhibition, % (test concentration not listed) | hit rate 1.1% among 300,000;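 active = most replicates above 15%; inconclusive = exactly half above 15%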;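 note: 0% = DMSO wells and 100% = Ran loaded with GDP instead of GTP; wells of about 40 µL received 100 nL stock; the first replicate is given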
Numbers without * were called inactive; u = inconclusive; x = no result given.

SMILES | Beta apoptosis | Calb FLC | T cruzi inh | Vif A3G | LANA-H2A inh | Bfl-1 A1 inh | MLL AF4-AF9 inh | RanGTP-Impb inh
COc1ccc2c(c1OC)C(=O)N1c3ccccc3N=C(c3ccc([N+](=O)[O-])cc3)CC21 (stereo not given) | 0 | x | x | 27% | 0.9 | -0.4 | 0.6 | x
O=C(Nc1cccc(O)c1)C1CCCN1C(=O)OCc1ccccc1 (stereo not given) | -3 | -1 | -2 | 4% | x | 0.1 | x | 0.5
COc1cc(C2NC(=O)NC(C)=C2C(=O)OCC2CCCO2)cc(OC)c1OC (stereo not given) | -2 | -14 | -10 | x | 12 | 0.7 | 1.3 | -0.6
CN1c2ccsc2C(O)=C(C(=S)Nc2ccccc2)S1(=O)=O | 0 | -6 | -16 | 26% | -1.7 | 0.3 | x | 89*
O=C(COc1ccc(Cl)cc1)NCc1nnc(SCC(=O)Nc2ccc(F)cc2F)o1 | -4 | -13 | -6 | -2% | -0.2 | 1.3 | -0.9 | 0.0
CN1C(=O)N(C)c2cccc3cccc1c23 | -9 | 10 | -6 | 10% | -4.8 | 0.3 | -2.5 | 5.7
NC(=O)NCC(=O)N1CCN(S(=O)(=O)c2ccc(Cl)s2)CC1 | -3 | x | x | 1% | -4.1 | -1.5 | -2.4 | x
C=CCn1c(SCc2ccc(C(=O)Nc3ccccc3)cc2)nnc1-c1ccccc1 | -7 | 72 | 10 | 5% | -0.5 | -0.7 | 6.0 | -1.3
CC(=O)Nc1c2c(nn1-c1ccccc1C)CS(=O)C2 (stereo not given) | -6 | 3 | 6 | x | -0.2 | 0.4 | -23 | 10
COc1ccc(-c2ccc(N)cn2)cn1 | 2 | x | x | x | -1.6 | -0.6 | 0.6 | x
CCn1c(=O)cc(SCC(=O)N2CCN(c3ccccn3)CC2)c2ccccc21 | x | -1 | 21 | -3% | x | x | x | 0.3
Cc1ccc(/C=C/c2nnc(-c3cccc(C)c3)o2)cc1 | -6 | 9 | -3 | -5% | 0.8 | -0.8 | 4.6 | 5.6
O=C(COC(=O)/C=C/c1nc2ccccc2s1)Nc1ccccc1Oc1ccccc1 | -11 | -3 | -6 | -14% | 4.8 | -0.2 | 5.6 | 0.2
Cc1ccc(C(=O)CC(=O)c2ccc(C)cc2O)cc1 | -3 | 1 | -6 | x | 5.7 | 0.8 | 4.2 | 6.6
Cc1ccc(/C(O)=C2\C(=O)C(=O)N(Cc3cccnc3)C2c2ccccc2[N+](=O)[O-])cc1 (stereo not given) | 2 | -5 | -10 | 7% | 0.0 | -1.2 | 6.1 | -3.9
O=C(NCC1CCCO1)c1cccc(N2C(=O)C3C4C=CC(C4)C3C2=O)c1 (stereo not given) | 0 | -4 | -2 | -3% | -3.1 | -0.3 | x | -2.1
COCCNC(=O)c1cc2c(=O)[nH]c3ccccc3c2s1 | 0 | -5 | -12 | x | -1.6 | -0.2 | -2.6 | 4.3
COCCn1c(SCC(=O)Nc2cccnc2Cl)nc2cc(Cl)ccc2c1=O | -3 | x | x | x | 4.6 | -2.0 | 0.2 | x
Cc1ccc2cc(CNC(C)(C)C)c(=O)[nH]c2c1 | -8 | -4 | -10 | 2% | -0.5 | 0.7 | x | -0.6
O=C(Cc1ccccc1)Nc1ncccn1 | 2 | 0 | -4 | x | 4.8 | 2.2 | -1.8 | 1.4
Cc1ccc(C(=O)N2CCCC(N3CCN(c4ccccc4F)CC3)C2)s1 (stereo not given) | 2 | -5 | 26 | x | 8.2 | 0.8 | 2.7 | -3.8
Cc1cc(C)cc(OC(=O)N2CCOCC2)c1 | -17 | -15 | -4 | -4% | 2.8 | 0.4 | x | -1.8
CCC(=O)c1ccccc1OCCSc1nc(C)cc(=O)[nH]1 | 0 | -14 | -12 | -4% | -4.2 | 0.2 | x | -2.5
CCOC(=O)c1cnn(-c2ccccc2)c1-c1ccncc1 | -10 | 0 | -7 | -5% | -2.6 | 0.7 | -1.8 | u
O=C(Nc1ccc(S(=O)(=O)Nc2ncccn2)cc1)c1ccc2ncsc2c1 | -3 | -6 | -12 | x | -1.7 | 0.0 | 21 | 2.2
O=C(Nc1ccc(N2CCN(C(=O)c3ccc(Cl)cc3)CC2)cc1)c1ccc2c(c1)OCCO2 | 25 | 2 | -1 | 4% | 3.9 | -0.3 | x | x
CN(C)/C=C(\C#N)C(=O)N/N=C/c1ccccc1 | -2 | -11 | -12 | 0% | 6.3 | -1.0 | -4.8 | 1.6
O=C(CCc1ccc(O)cc1)c1c(O)cc(O)cc1O[C@@H]1O[C@H](CO)[C@@H](O)[C@H](O)[C@H]1O | x | x | 0 | x | -6.3 | 0.5 | -18 | -3.2
CCc1ccc(NC(=O)CC2C(=O)N(c3ccc(C)cc3)C(=O)N2CCc2ccncc2)cc1 (stereo not given) | -6 | -1 | 29 | -5% | -0.1 | 0.5 | 2.4 | -1.7
Cc1ccccc1-n1c(C)nnc1SCC(=O)N(C)C1CCS(=O)(=O)C1 (stereo not given) | -4 | -1 | 4 | u | 2.5 | -0.4 | -1.0 | -1.2
O=C(NC(=S)NNS(=O)(=O)c1ccccc1)c1ccc([N+](=O)[O-])cc1 | 6 | 4 | -8 | u | 1.2 | -0.6 | x | -1.3
CCOc1ccccc1NC(=O)C(Sc1ccccc1)c1ccccc1 (stereo not given) | 1 | 2 | 3 | -1% | 8.3 | -0.4 | x | -3.6
N#C/C(C(=O)Oc1ccccc1)=C1/Nc2ccccc2-c2ccccc21 | x | 2 | 3 | -19% | x | x | x | 4.2
COc1ccc(NC(=O)N(Cc2cc3ccc(OC)cc3[nH]c2=O)CC2CCCO2)cc1 (stereo not given) | 3 | 14 | -8 | -1% | 0.0 | -0.1 | -0.1 | u
Cc1cccc(-c2cccc(NC(=O)C3CCCN(C(=O)c4ocnc4C)C3)c2)c1 (stereo not given) | 3 | 0 | 20 | x | 0.1 | -0.4 | 1.3 | 7.1
Cc1ccc(/C=C2/SC(=S)N(CCCC(=O)Nc3ccc(O)cc3)C2=O)cc1 | x | -30 | 34 | -8% | x | x | 0.8 | -8.8
O=C(CCN1C(=O)C2C3C=CC(C3)C2C1=O)Nc1nccs1 (stereo not given) | -4 | -2 | -4 | 8% | 2.2 | -0.8 | x | 1.8
CC(=O)Nc1ccc(NC(=O)CSc2nnc(NC(=O)C3CC(=O)N(c4ccccc4)C3)s2)cc1 (stereo not given) | -5 | -6 | -24 | x | 2.2 | -0.8 | -1.8 | -1.0
Cn1c2c(c(=O)n(C)c1=O)C(c1ccc(Br)cc1)C(C#N)=C(N)N2 (stereo not given) | -8 | 8 | 35 | x | -2.0 | 0.5 | 3.6 | 0.8
O=C(/C=C/c1ccco1)N1CCN(S(=O)(=O)c2ccccc2)CC1 | 0 | x | x | x | 1.3 | 1.8 | -2.6 | x
CCC1Oc2ccc(C)cc2N(CC(=O)NCCN2CCCCCC2)C1=O (stereo not given) | -17 | -19 | 13 | 21% | 0.8 | 0.6 | -9.8 | u
COc1ccc(N2CCN(c3nc4ccccc4n3CC(=O)c3ccccc3)CC2)cc1 | -4 | -18 | 5 | 6% | -0.7 | 0.0 | x | 8.8
CCN1C(=O)Cc2cc(S(=O)(=O)N3CCOCC3)ccc21 | -2 | -2 | 3 | u | 3.8 | -0.4 | x | -1.3
CCC(=O)N1CCN(c2ccc(NC(=O)c3cccs3)cc2)CC1 | 1 | -8 | 4 | 2% | 0.1 | -0.2 | x | 2.8
Cc1ccc(OCC(=O)NNC(=S)NC(=O)c2cccs2)c(C)c1 | 6 | -27 | -8 | 2% | -1.1 | -0.4 | -2.9 | 0.8
COC(=O)/C=c1/s/c(=C(/C#N)C(=O)N2CCCCC2)n(-c2ccccc2)c1=O | -14 | 1 | 24 | x | 0.1 | 1.1 | x | -5.0
Cc1nnc(N/N=C/c2c(Cl)cccc2Cl)n1N | -3 | 3 | -13 | 7% | -3.9 | -0.7 | -3.6 | -0.2
N#CCCN(C(=O)COc1ccc(F)cc1Br)c1ccccc1F | -4 | 44 | 3 | x | 0.7 | -0.1 | -2.1 | -3.3
CC(C)COc1ccc(/C=C2/Sc3ccccc3C2=O)cc1 | 4 | 8 | -7 | 30% | 0.0 | -13 | x | 43*
Cc1noc(C)c1COc1ccc(C(=O)OCC(=O)Nc2ccc3ccccc3c2)cc1 | x | -6 | -11 | 21% | -0.6 | -0.2 | x | 6.7
O=C(Nc1cccnc1)c1ccc(Cl)c(S(=O)(=O)N2CCc3ccccc32)c1 | -9 | 28 | 10 | x | -0.8 | 0.7 | -1.3 | 7.3
CCOc1ccc(OCCSc2nc3ccccc3c(=O)[nH]2)cc1 | 8 | 40 | 13 | -31% | 4.2 | 0.3 | x | 1.4
Cc1ccc(S(=O)(=O)Cn2nnnc2C(C(C)C)N2CCC(O)CC2)cc1 (stereo not given) | 0 | -5 | 1 | x | -1.5 | 0.1 | 0.7 | 8.9
CC12CCC(=O)N1C(C(=O)Nc1nc3c(F)cc(F)cc3s1)CS2 (stereo not given) | -1 | -3 | 1 | 1% | -5.6 | 0.0 | -0.6 | -0.1
O=c1c2cc(Cl)ccc2nc(-c2ccc([N+](=O)[O-])cc2)n1O | -3 | 4 | -4 | 2% | 0.4 | -2.4 | 1.6 | 3.8
CCN(c1cccc(C)c1)S(=O)(=O)c1c(C)[nH]c(=O)[nH]c1=O | -2 | 45 | -26 | 24% | -3.4 | 0.6 | x | 6.1
CN(C)CCNC(=O)NC(=O)c1ccc(Cl)cc1 | -4 | -14 | -29 | -1% | -1.4 | 0.0 | x | -0.9
O=C(CCC(=O)NC1CC1)Nc1nnc(C2CCCCC2)s1 | 1 | -1 | -31 | 0% | 0.1 | 1.1 | x | 5.6
O=C(COC(=O)C1CC2CCCC(C1)C2=O)NNC(=O)c1ccccc1Br (stereo not given) | -5 | x | x | -3% | -0.8 | -0.6 | u | x
CC1(Cc2ccc3c(c2)OCO3)NC(=O)NC1=O (stereo not given) | -6 | -6 | -3 | 4% | -1.6 | 0.3 | x | -4.0

Continued:
SMILES | Beta apoptosis | Calb FLC | T cruzi inh | Vif A3G | LANA-H2A inh | Bfl-1 A1 inh | MLL AF4-AF9 inh | RanGTP-Impb inh
C/C(=N\N(C)C)c1ccc(OCCOc2ccc([N+](=O)[O-])cc2)cc1 | -7 | -3 | 7 | x | 3.3 | 0.0 | 8.9 | -1.1
Clc1ccc(Oc2ncnc3oc(-c4ccccc4)cc23)cc1 | -9 | 0 | 1 | 3% | -2.2 | 0.3 | x | -1.0
CC(=O)c1cccc(NC(=O)N(c2ccccc2)c2ccccc2)c1 | 0 | 7 | 9 | 3% | -2.1 | 0.2 | -9.3 | -5.3
CCCCCCCC(=O)OC(CN1CCCCC1)CN1CCCC1=O (stereo not given) | -1 | 10 | -13 | -1% | 5.3 | 1.1 | -8.6 | -1.6
COc1ccc(NC(=O)CSc2nc(=O)n(CCN(C)C)c3c2CCCC3)cc1 | -6 | -3 | 1 | -1% | 0.5 | 0.0 | -20 | 1.1

Assay outcomes deposited in PubChem BioAssay by several laboratories.
